Compound activity: PubChem BioAssay, ICCB-Longwood Screening Facility, Harvard Medical School
Sa helicase inh – S. aureus DNA helicase inhibition. inhibition, %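 (tested at about 80 µM)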. 0.05% of 120,000 active. purified S. aureus helicase, fluorescence unwinding assay; about half of the hits fall short of the stated cut. AID 485395;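 active = both duplicates at 50% or more, or one of them with a favoured structure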;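 note: 0% = mean of negative control wells and 100% = mean of positive control wells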
MgrA-DNA mod – S. aureus MgrA-DNA binding modulation; fluorescence polarization; inhibition, %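 (about 10 µg/mL by stock and volumes)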; 0.13% of 84,000 active;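 active = above 50% in either of two replicates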;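 note: 0% = protein plus DNA without compound and 100% = DNA alone without protein; higher means less MgrA bound to DNA so lower polarization; one replicate is shown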
* hit, by the source's call; . = not tested or not shown. The list is partial. The share of hits here may be higher or lower than overall.

The line under a structure holds: Sa helicase inh, MgrA-DNA mod
> CC1=C(C#N)C(=O)N(CCc2ccccc2)C(=O)/C1=C\c1ccc(-c2cccc(Cl)c2)o1
 : 29.0, .
> Cc1ccc2nsnc2c1S(=O)(=O)NC12CC3CC(CC(C3)C1)C2
 : 0.0, -1.6
> O=C(CN1CCOCC1)NCC1COc2ccccc2O1 (stereo not drawn)
 : 4.0, -3.4
> CC1=C(C(=O)c2ccccc2)C(c2ccc(N3CCOCC3)cc2)NC(=O)N1 (stereo not drawn)
 : -36.0, .
> COc1ccc(/C=N/OCC(=O)Nc2ccccc2OC)cc1
 : -2.0, .
> Brc1ccc(C2=NN3C(C2)c2ccccc2OC3c2ccc(OCc3ccccc3)cc2)cc1 (stereo not drawn)
 : ., -2.3
> COc1ccc(C)cc1NC(=O)COCc1cc(-c2ccc3c(c2)OCO3)on1
 : 13.0, .
> COc1ccc2c(=O)c(-c3ccccc3C)c(C(F)(F)F)oc2c1
 : 4.0, 1.6
> O=C(O)C1CCCCN1S(=O)(=O)c1ccccc1Cl (stereo not drawn)
 : -11.0, .
> CCN1C(=O)C2C3C=CC(C3=C3C4CC5CC(C4)CC3C5)C2C1=O (stereo not drawn)
 : 4.0, 1.9
> CC1=C(C(=O)N2CCOCC2)C(c2ccc(N(C)C)cc2)C2=C(CC(C)(C)CC2=O)N1 (stereo not drawn)
 : 7.0, .
> O=C(C1CCCN1S(=O)(=O)c1ccc(Cl)cc1)N1N=C2/C(=C/c3cccs3)CCCC2C1c1cccs1 (stereo not drawn)
 : -9.0, .
> CC(C)N1CCC2(CC1)C(C#N)=C(N)NC(S)=C2C#N
 : -8.0, 3.6
> CC(C)(CC(=O)O)CC(=O)Nc1ccccc1N1CCOCC1
 : ., -1.6
> O=c1[nH]c2ccccc2nc1/C=C(\O)c1ccc(Cl)cc1
 : -1.0, 1.1
> N/C(CCCN1CCCCC1)=N\O
 : 6.0, 1.9
> Cc1ccc(CNC(=O)Cn2ncc3c(=O)oc4ccc(C)cc4c32)cc1
 : 7.0, .
> O=C1CCCC/C1=C/Nc1ccccc1C(=O)O
 : 16.0, -1.6
> CN1CCN(C(=O)CC23CC4CC(CC(Br)(C4)C2)C3)CC1
 : -11.0, -1.3
> CCCn1c(N)c(C(=O)CSc2nc3ccccc3n2CCC#N)c(=O)n(C)c1=O
 : -6.0, .
> Cn1c(CCCNC(=O)C2CCCCC2)nc2ccccc21
 : 5.0, -0.5
> Cc1ccc(NC(=O)COC(=O)c2ccccc2)cc1F
 : -16.0, .
> CCCn1c(N)c(C(=O)CSc2nc3ccccc3s2)c(=O)[nH]c1=O
 : 27.0, .
> CCc1nc2ccc(C(=O)NCCN3CCN(c4cccc(Cl)c4)CC3)cc2nc1CC
 : 1.0, .
> Cc1nc2c(-c3ccc(F)cc3)c(C)nn2c(C)c1CCC(=O)N(C)c1ccccc1
 : 14.0, -0.9
> O=C(O)C(C(=O)O)C1c2ccccc2Oc2ccccc21
 : 4.0, .
> O=c1c2c3c(sc2nc2n1CCC2)CCC3
 : 9.0, -4.6
> O=C(c1ccccc1)N1CCN(C(=O)c2ccc(OCC3CCCO3)cc2)CC1 (stereo not drawn)
 : 10.0, .
> CCOc1ccc(N2C(=O)C3C4C=CC(C4)C3C2=O)cc1 (stereo not drawn)
 : -1.0, .
> CCOC(=O)c1c(OC)cccc1OC
 : ., -2.1
> O=C(Nn1cnnc1)c1ccccc1
 : 7.0, -1.3
> CC(NC(=O)c1c(F)cccc1F)C(c1cccs1)N1CCN(C)CC1 (stereo not drawn)
 : 10.0, .
> O=C(COC(=O)C1c2ccccc2Oc2ccccc21)NC1CC1
 : 6.0, 0.1
> N=c1oc2ccccc2cc1-c1nc2ccccc2c(=O)[nH]1
 : 22.0, .
> C=CCN1C(=O)NC(C)(C)C1=O
 : ., -1.1
> CC1CCN(S(=O)(=O)c2cn(C)c(=O)n(C)c2=O)CC1
 : 8.0, .
> COc1ccc(NC(=O)CSc2nnc(C)n3c2cc2sccc23)cc1
 : 3.0, -0.6
> CCn1c(SCCOc2ccccc2)nc2ccccc21
 : 4.0, 5.7
> Cc1ccc(NS(=O)(=O)c2ccc3oc(=O)c4ncn(C)c4c3c2)cc1
 : -19.0, .
> CCOc1ccc(CN2C(=O)C(NC(C)=O)c3ccccc32)cc1 (stereo not drawn)
 : -5.0, -6.2
> COc1ccc(/C=N/NC(=O)c2c(-c3ccccc3)noc2C)c(O)c1
 : 12.0, 5.1
> O=C(c1csc(-c2ccccc2)n1)N1CC=C(c2ccccc2)CC1
 : ., -0.5
> COc1ccccc1-c1nnc(C2CCN(S(=O)(=O)c3ccc(C)cc3)CC2)o1
 : 18.0, .
> O=S(=O)(NCC(c1ccccc1)N1CCOCC1)c1ccccc1 (stereo not drawn)
 : 12.0, .
> CN(C)S(=O)(=O)c1ccc(SCC(=O)N(CC2CCCO2)C2CCS(=O)(=O)C2)nc1 (stereo not drawn)
 : 22.0, .

Full records from above. Order of values: Sa helicase inh	MgrA-DNA mod
CC1CCN(S(=O)(=O)c2cn(C)c(=O)n(C)c2=O)CC1 is listed with 8.0	.
C=CCN1C(=O)NC(C)(C)C1=O is listed with .	-1.1
CC(NC(=O)c1c(F)cccc1F)C(c1cccs1)N1CCN(C)CC1 (stereo not drawn) is listed with 10.0	.
N=c1oc2ccccc2cc1-c1nc2ccccc2c(=O)[nH]1 is listed with 22.0	.
CN(C)S(=O)(=O)c1ccc(SCC(=O)N(CC2CCCO2)C2CCS(=O)(=O)C2)nc1 (stereo not drawn) is listed with 22.0	.

(continued)
The line under a structure holds: Sa helicase inh, MgrA-DNA mod
> CCS(=O)(=O)NCc1ccc2c(c1)cc(C)n2C
 : 0.0, .
> Cc1ccc(N2C(=O)CC(SCC(=O)Nc3ccccc3)C2=O)cc1 (stereo not drawn)
 : 14.0, .
> CNC(=O)CCCc1nnc2n(CCC(C)C)c(=O)c3sccc3n12
 : -6.0, .
> CC1N(C)c2cc(NC(=O)c3cccs3)ccc2C1(C)C (stereo not drawn)
 : -10.0, -0.2
> Cc1ccc(/C=C/C(=O)N(C)Cc2ccccc2)o1
 : 4.0, .
> CC1(C)C2CC=C(/C=C(\C#N)c3nc4ccccc4[nH]3)C1C2 (stereo not drawn)
 : -18.0, .
> CCCCn1nc(C(=O)NC2CCCCCC2)c2ccccc2c1=O
 : -16.0, .
> CCCCc1nccn1CCn1ccnc1CCCC
 : 1.0, .
> S=C(c1cccc(OCc2ccccc2)c1)N1CCCCC1
 : 20.0, 13.1
> CCOC(=O)[C@@H]1Nc2c(ccc(C(=O)O)c2C)[C@@H]2C=CC[C@H]12
 : -29.0, .
> O=C(O)C1CCCCC1C(=O)NCCc1ccncc1 (stereo not drawn)
 : 13.0, .
> O=C(c1ccc(Nc2nc3ccccc3n3nnnc23)cc1)N1CCOCC1
 : -18.0, .
> CCc1ccc(OC(=O)COc2ccc(Br)c(C)c2)cc1
 : -13.0, -3.6
> CCn1c(COc2ccc(C)cc2)nnc1SCC(=O)N1CCCc2ccccc21
 : -4.0, 2.2
> Cn1c(Sc2ccc([N+](=O)[O-])cn2)nnc1C(F)(F)F
 : ., 2.7

No new results follow: two of the compounds above.
The line under a structure holds: Sa helicase inh, MgrA-DNA mod
> CCS(=O)(=O)NCc1ccc2c(c1)cc(C)n2C
 : 0.0, .
> Cc1ccc(N2C(=O)CC(SCC(=O)Nc3ccccc3)C2=O)cc1 (stereo not drawn)
 : 14.0, .

Additional structures follow:
The line under a structure holds: Sa helicase inh, MgrA-DNA mod
> COC(=O)C1Sc2[nH]c(=O)sc2C(c2ccc(OC)cc2)C1C(=O)OC (stereo not drawn)
 : 4.0, 2.7
> CC(C)(C)c1ccc(C2CC(=O)C=C(O)C2)cc1 (stereo not drawn)
 : 9.0, .
> CCn1c(=O)c(C(=O)CN2CCc3ccccc32)c(N)n(Cc2ccccc2)c1=O
 : -10.0, .
> CC(=O)NC(=O)c1cc2cc(Br)ccc2oc1=Nc1ccc(C(F)(F)F)cc1
 : ., 2.5
> CN(C)c1cccc(N(C)C)c1CNC(=O)c1ccccc1F
 : ., 0.4
> C=CC(N)CCC(=O)O (stereo not drawn)
 : ., 0.9
> Nc1cc(C(=O)O)c(Oc2ccc(Cl)cc2Cl)cc1C(=O)O
 : -8.0, .
> O=C(O)CC1(CC(=O)Nc2cc3ccccc3cn2)CCCCC1
 : ., 3.3
> CCOC(=O)C1=C(CSc2nnc3ccccn23)NC(=O)NC1c1cccs1 (stereo not drawn)
 : 4.0, .
> CCOC(=O)c1cc2occc2n1CC(=O)N1CCCCC1
 : -9.0, 18.7
> COc1ccc(CCNc2nc3c(c(=O)[nH]c(=O)n3C)n2CC(O)COc2ccc(Cl)cc2)cc1OC (stereo not drawn)
 : ., 0.8
> COc1ccc2c(=O)c(NC(=O)NCCCN3CCCC3=O)c[nH]c2c1
 : 0.0, 0.1
> CC1=C(C(=O)NC(C)C)C2(CCCCC2)OC1=O
 : 10.0, -0.5
> Cc1oc(-c2cc(Cl)ccc2Cl)cc1C(=O)NC(C)C
 : 0.0, -4.3
> CCCn1c(N)c(C(=O)CN2CCCCC2)c(=O)[nH]c1=O
 : 3.0, .
> O=C(CN1CCN(Cc2ccccc2)CC1)NC(=O)NCc1ccco1
 : -8.0, .
> CC(C)(C)NC(=O)C[n+]1cccc(/C=N/O)c1
 : 21.0, -1.9
> O=C(CCNS(=O)(=O)c1ccccc1)NC12CC3CC(CC(C3)C1)C2
 : 0.0, .
> C/C(=C\c1ccccc1)CN1CCC(C(N)=O)CC1
 : 24.0, -0.3
> NC(=O)CSc1nc2ccccc2c(=O)n1Cc1ccc(Cl)cc1
 : -5.0, .
> CC(C)(C)OC(=O)Cn1nc(C(=O)O)c2ccccc2c1=O
 : 35.0, .
> CCCCn1c(=N)n(CC(O)c2ccccc2)c2ccccc21 (stereo not drawn)
 : 7.0, .
> CCOC(=O)C1CCCN(C(=O)c2ccccc2OCc2ccccc2)C1 (stereo not drawn)
 : -14.0, 0.1
> O=C(CCCCl)N1CCOCC1
 : -12.0, 2.0
> O=C(Nc1ccc(Cl)c(Cl)c1)N(CCCN1CCOCC1)Cc1cccnc1
 : 2.0, 2.6
> COc1ccc(N=c2oc3c(C)ncc(CO)c3cc2C(=O)Nc2ccc3c(c2)OCO3)cc1
 : -1.0, .
> COc1ccc(/C=C2\N=C(c3ccccc3)N(c3nc4ccc(C(=O)O)cc4s3)C2=O)cc1
 : -2.0, 2.4
> O=C(O)c1nn(Cc2ccccc2)c(=O)c2ccccc12
 : 9.0, .
> COc1ccc(C)cc1NC(=O)CSc1nnc(Cn2nnc3ccccc32)n1C
 : 11.0, -1.4
> Cc1ccn2cc(CCNS(=O)(=O)c3ccc(Cl)s3)nc2c1
 : 10.0, -2.5

Next structures:
SMILES | Sa helicase inh | MgrA-DNA mod
C=CCc1c(C)nc(SC(C)C)[nH]c1=O | -12.0 | 0.7
CCC(C(=O)OCn1nnc2ccccc2c1=O)c1ccccc1 (stereo not drawn) | 14.0 | -0.3
Cc1nc(S(=O)(=O)c2ccc(Cl)cc2)c(N2CCOCC2)o1 | 9.0 | .
COc1ccccc1C(=O)Nc1ccccc1N1CCN(C)CC1 | 4.0 | -0.7
O=C(CCc1nc(-c2ccccc2F)no1)NCCN1CCOCC1 | 28.0 | .
CSC(SC)=C1C(=O)c2ccccc2N(C)S1(=O)=O | . | -0.5
COc1cccc(C2CC(c3cccs3)=NN2C(=O)CN2CCOCC2)c1OC (stereo not drawn) | 21.0 | .
SCc1nc2c3ccccc3ncn2n1 | 4.0 | .
O=C(CCN1C(=O)/C(=C\c2cccs2)SC1=S)Nc1cc(Cl)ccc1O | . | -3.1
COc1ccc(CNC(=S)Nc2ccccc2)cc1 | 6.0 | -0.2
Cc1ccc(OCC(=O)N(c2ccccn2)C2CCCCC2)c(C)c1 | -3.0 | .
CC(C)NC(=O)c1cc(-c2ccco2)nn1-c1ccc(Cl)cc1 | 11.0 | .
O=S(=O)(NCc1cccnc1)c1ccc2[nH]c3c(c2c1)CCCC3 | 16.0 | .
CCNC(=S)N/N=C/c1ccccc1OC(C)C | 5.0 | .
COCc1nn2cc(-c3ccc(C)cc3C)nc2s1 | 5.0 | .
CC(Nc1ccc(Cl)cc1)C(=O)N/N=C/c1ccc2c(c1)OCO2 (stereo not drawn) | -22.0 | .
O=S(=O)(Nc1cccnc1)c1cc(C(F)(F)F)cc(C(F)(F)F)c1 | . | -3.9
COc1cc([C@@H]2c3cc4c(cc3[C@@H](O[C@@H]3O[C@@H]5CO[C@@H](C)O[C@H]5[C@H](O)[C@H]3O)C3COC(=O)[C@@H]32)OCO4)cc(OC)c1O (stereo partly drawn) | . | -1.6
O=C(NCc1ccccc1)NC1CCS(=O)(=O)C1 (stereo not drawn) | -20.0 | -1.0
O=c1oc(-c2ccccc2)nc2c(Br)cc(Br)cc12 | . | 2.1
O=C(O)CCCCCN1CCN(c2ccccc2)CC1 | -2.0 | .
CCOC(=O)N1CCC2(CC1)OC(=O)C(C)=C2C(=O)N1CCCC1 | 24.0 | .
C=C1C(C(=O)N2CCCC2)C1C(=O)N1CCCC1 (stereo not drawn) | -18.0 | -1.8
Cc1ccc(C(O)C(C)(C)C(=O)O)cc1 (stereo not drawn) | -13.0 | .
O=C(O)c1ccccc1SCCS(=O)(=O)c1ccc(Cl)cc1Cl | . | 4.1
Cc1cc2nc(CSc3ccccc3)cc(=O)n2o1 | -1.0 | .
COc1ccccc1OCC(=O)Nc1ccccc1C(=O)NCc1cccnc1 | 6.0 | -4.8
O=C1CC(c2cccc(Br)c2)Nc2ccc3ccccc3c21 (stereo not drawn) | 13.0 | 0.3
CS(=O)(=O)c1ccc(NC(=O)CCCc2nc3ccccc3c(=O)[nH]2)cc1 | 4.0 | .
Cc1cc(-c2ccc(C(C)C)c(S(=O)(=O)NC3CCCC3)c2)on1 | 12.0 | .
COc1ccc(S(=O)(=O)Cc2ccc(C(=O)NCCCN3CCc4ccccc4C3)o2)cc1 | 6.0 | .
N/C(=N/c1nc(-c2ccccc2)cc(=O)[nH]1)Nc1ccccc1 | 11.0 | 0.1
Cc1cccc(-n2c(C)cn3c4c(=O)n(C)c(=O)n(C)c4nc23)c1 | 13.0 | .
